Bead autofluor: counter-screen for toxin protease inhibitors: compound fluorescence | compound autofluorescence counterscreen, microsphere flow cytometry; stronger effect = higher value | fluorescence intensity (no concentration beside the values) | hit rate 3.1% among 360,000;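 active = at least 3 SD above the mean of all compounds, about 16000 in these data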;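 also: 100 nL of 1 mM stock went into each well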
Mtb hypoxia inh: reduces hypoxia-regulated biosensor signal in M. tuberculosis; M. tuberculosis hypoxia-regulated fluorescent reporter, fluorescence; fluorescence inhibition, % (no concentration beside the values); hit rate 0.1% among 300,000;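 active = 35 to 45% if threefold the growth effect, above 45% if 1.5-fold the growth effect; inactive = the rest, general growth blockers included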;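 also: wells of about 50 µL received 100 nL stock; 0% = vehicle wells and 100% = reference inhibitor wells; whole bacteria with a GFP reporter of the hypoxia response; strong numbers were not always called active; many hits fall short of the cut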
RN4220 kill: kills Staphylococcus aureus RN4220. S. aureus RN4220 growth, OD600, 16 h. inhibition, % (no concentration beside the values). hit rate 0.33% among 330,000. AID 1259311;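 active = z-score of -3 or lower and OD600 up to 0.18 on both plates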;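 also: plate controls were untreated cells for no effect and reference antibiotic for full effect; stock transfer was 100 nL into about 80 µL; one replicate is shown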
PrP 5UTR inh: suppresses PrP 5' UTR mRNA reporter expression. hit rate 0.35% among 340,000. AID 488862. cell-based PrP 5' UTR mRNA reporter, plate reader. inhibition, % (no concentration beside the values);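 active = every replicate at 50% or more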;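 also: 0 = median of the neutral control wells; tested in H4 reporter cells; numbers are from one replicate; inactives centre near -14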
Sa ugtP lethal: compounds lethal to S. aureus RN4220 ugtP deletion mutant; OD600 growth, 16 h; some inactives read as strong as hits; growth inhibition, % (test concentration not listed); AID 1259309; hit rate 0.54% among 330,000;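 active = z-score under -3 and OD600 up to 0.15 on both plates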;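 also: plate controls were untreated wells for no effect and antibiotic for full effect; wells of about 80 µL received 100 nL stock; the first replicate is given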
BJeLR lethal: BJeLR cell viability loss; BJeLR (HRASV12) viability, CellTiter-Glo ATP luminescence, 48 h; reference of the scale not given here; inhibition, % (test concentration not listed); hit rate 0.17% among 300,000; AID 1554;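 active = replicate mean above 50%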;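 also: 50 nL library stock added to about 25 µL; numbers are from one replicate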
Mtb hypoxia inh growth: also measured in Mtb hypoxia inh; calls as there; growth inhibition, %; measured here: M. tuberculosis growth (absorbance);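 0% = vehicle and 100% = reference antibiotic; read after six days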
The depositor's hits bear a star; . = not tested or not shown.

cpd | mol | RN4220 kill | Mtb hypoxia inh | Sa ugtP lethal | BJeLR lethal | Mtb hypoxia inh growth | Bead autofluor | PrP 5UTR inh
1 | CCCC(=O)Nc1ccc(C(=O)O)cc1NC(=O)CCC | 0.7 | . | 10 | 2 | . | 2742 | -25
2 | O=C(CSc1nc2ccccc2c(=O)n1CC1CCCCC1)N1CCOCC1 | -1.7 | . | 7 | 2 | . | 2504 | -7
3 | COc1ccc(/C=C/C(=O)OCC(=O)NCc2ccccc2)cc1OC | 4.6 | 5 | 14 | . | -1 | 4112 | -21
4 | CCNc1nc(NCC)n2c(SCC(=O)Nc3ccccc3OC(F)F)nnc2n1 | 3.6 | 9 | 3 | . | -2 | 3729 | -21
5 | O=C(Nc1nccs1)C1CCN(S(=O)(=O)c2ccc(Cl)c(C(F)(F)F)c2)CC1 | . | . | . | 6 | . | 2820 | -15
6 | CSc1nc(N)nc2c1ncn2CC(=O)N[C@H](CO)Cc1c[nH]c2ccccc12 | 3.3 | -9 | 3 | . | -17 | 3567 | 49
7 | CCN(Cc1ccccc1)S(=O)(=O)c1ccc(C(=O)N(CCCN(C)C)c2nc3cc(OC)ccc3s2)cc1 | -0.5 | 11 | -7 | 12 | 5 | 5498 | -13
8 | CCn1c(-c2cccc(S(=O)(=O)N3CCCC3)c2)n[nH]c1=S | 2.2 | 9 | 10 | -6 | -5 | 4567 | -32
9 | Cc1nc(S/C(=C\c2ccc(OCc3ccccc3Cl)cc2)C(=O)O)n[nH]1 | -7.3 | 19 | -15 | . | 1 | 2869 | -1
10 | CCCOc1ccc(C(=O)NCc2ccco2)cc1 | -0.4 | 20 | 1 | 7 | 15 | 3807 | -31
11 | c1ccc(-c2nnc3ccc(N4CCCC4)nn23)cc1 | 7.7 | 1 | 14 | 10 | 4 | 5719 | -15
12 | CC(C)(C)c1ccc(C(=O)NNC(=O)c2cccc(-n3cnnn3)c2)cc1 | 1.6 | -9 | 3 | 4 | 7 | 4577 | -23
13 | N#CC1=C(N)SC(C(=O)c2ccccc2)C1c1cccs1 (centres undefined) | 15 | 9 | 6 | 3 | 5 | 4074 | -27
14 | CN1CCN(C(=O)c2ccccc2Nc2ccc(SC(F)F)cc2)CC1 | 4.3 | 8 | 1 | 2 | 8 | 2242 | -13
15 | Cc1ccccc1C(=O)Nc1ccc(S(=O)(=O)Nc2onc(C)c2C)cc1 | 4.2 | 8 | 4 | -14 | 11 | 3722 | -4
16 | CCOc1ccc(NS(=O)(=O)c2ccc(-c3coc(C)n3)cc2)cc1 | 2.2 | 2 | -1 | 14 | -7 | 5048 | -16
17 | Cc1sc2ncn(CC(=O)NCCCC(=O)N3CCCCC3)c(=O)c2c1C | 1.0 | 5 | -5 | -2 | 2 | 6046 | -1
18 | Cc1cc(OCc2cc(C(=O)N(C)Cc3ccccn3)no2)cc(C)c1Cl | 4.1 | 5 | -8 | 10 | 2 | 6340 | -60
19 | CC(=O)O[C@H](CC(=O)O)C[N+](C)(C)C | . | . | . | 5 | . | 4310 | 7
20 | CCC(C)(C)n1nnnc1C(c1ccc2ncccc2c1)N1CCN2CCCC2C1 (centres undefined) | 2.9 | 15 | 8 | 11 | 7 | 11804 | -22
21 | O=C(NCc1ccccc1)C1=C[C@@H](c2ccc(C(F)(F)F)cc2)C[C@@H](OCc2ccc(CO)cc2)O1 | . | . | . | -4 | . | 2753 | -7
22 | O=C1/C(=C/c2ccc(N3CCCC3)cc2)NC(=S)N1C1CC1 | -1.1 | 6 | -18 | -12 | 4 | 16062 | -59
23 | CC(C)C(C)NC(=O)COc1ccc([N+](=O)[O-])cc1Cl (centres undefined) | 8.6 | 12 | 10 | 11 | -3 | 2037 | -8
24 | COc1ccccc1NC(=O)CSc1nnc(C2CCCCC2)n1-c1ccccc1 | 3.4 | 8 | 10 | 9 | 8 | 4702 | -24
25 | S=C(NCCc1ccccn1)NC1CCCCC1 | 1.9 | -10 | 3 | -19 | -4 | 2316 | -32
26 | CC(C)(CNC(=O)Cc1ccc(NS(=O)(=O)c2cccc(C(F)(F)F)c2)cc1)N1CCOCC1 | 5.4 | 1 | 2 | -6 | -2 | . | -12
27 | COCCN(C(=O)CCC(=O)Nc1cc(C)on1)C(C(=O)NC1CCCC1)c1ccccc1F (centres undefined) | 0.6 | 0 | 0 | 0 | -8 | 3255 | 4
28 | O=C(N1CCCCC1)N1CCN(c2ccc(Cl)cc2)CC1 | -3.5 | . | -1 | -12 | . | 4754 | -5
29 | Cc1ccc(N(CCC#N)C(=O)COC(=O)c2ccccn2)cc1 | 4.0 | 8 | 4 | 9 | -1 | . | -46
30 | O=C(Nc1ccc(S(=O)(=O)Nc2cnc3ccccc3n2)cc1)c1ccccc1Br | 2.0 | -16 | 1 | 6 | -3 | 5892 | -13

Overlap with the part before: 2 compounds, then new ones.
cpd | mol | RN4220 kill | Mtb hypoxia inh | Sa ugtP lethal | BJeLR lethal | Mtb hypoxia inh growth | Bead autofluor | PrP 5UTR inh
29 | Cc1ccc(N(CCC#N)C(=O)COC(=O)c2ccccn2)cc1 | 4.0 | 8 | 4 | 9 | -1 | . | -46
30 | O=C(Nc1ccc(S(=O)(=O)Nc2cnc3ccccc3n2)cc1)c1ccccc1Br | 2.0 | -16 | 1 | 6 | -3 | 5892 | -13
31 | Cc1cc(C)c(NC(=O)COC(=O)CCn2c(C)csc2=O)c(C)c1 | 0.8 | -2 | 0 | 4 | -15 | . | -18
32 | COc1ccc2c(c1)Cc1sc(NC(C)=O)nc1-2 | -2.5 | -3 | -8 | 1 | -3 | 15468 | -67
33 | COc1ccc(C(=O)NCC(=O)OCc2ccc(F)cc2Cl)cc1OC | 6.0 | 3 | 7 | -2 | -2 | 2146 | -7
34 | CCCNC(=O)Cn1cnc2sc(C(=O)NCCCN3CCOCC3)c(C)c2c1=O | 2.7 | 10 | 5 | 12 | 2 | 5418 | -13
35 | CC(=O)Nc1ccc(NS(=O)(=O)c2c(Cl)cccc2Cl)cc1 | 2.1 | -5 | -13 | -1 | -10 | 3462 | -12
36 | CN(C)CCCN(C(=O)COc1ccccc1)c1nc2cc3c(cc2s1)OCO3 | 0.5 | 14 | 6 | -2 | 4 | 5309 | -28
37 | CC[C@@H](C)[C@@H](C(=O)N1CCNCC1)n1cc(CCC(=O)O)nn1 | . | . | . | 12 | . | 3772 | -12
38 | COc1ccc(N/C(=C2\CCCC2=O)C2CCCCC2)cc1 | . | . | . | 11 | . | 4314 | -15
39 | COc1ccc(OC)c(-c2oc3ccccc3c(=O)c2O)c1 | -2.0 | 5 | -6 | -2 | 5 | 2370 | 39
40 | COc1ccc(NC(=O)COC(=O)C(NC(=O)c2ccc(C)cc2)C(C)C)cn1 (centres undefined) | 5.2 | -5 | -6 | . | 3 | 4980 | -10
41 | CN(C)CCCNc1c2c(nc3cc(-c4cccc(F)c4)nn13)CCC2 | -0.3 | -5 | 8 | 5 | -1 | 2467 | -8
42 | COc1cc(CNn2c(C)n[nH]c2=S)cc(Br)c1OCc1ccc(F)cc1 | 17 | 6 | -4 | 4 | 7 | 2456 | -110
43 | Cc1cccc(N2N=C(C(=O)N3Cc4ccccc4CC3C(N)=O)CCC2=O)c1 (centres undefined) | 1.6 | 4 | -1 | . | 4 | 3744 | -30
44 | C[C@H](CO)N1C[C@H](C)[C@@H](CN(C)Cc2ccc(Cl)c(Cl)c2)Oc2c(NS(=O)(=O)c3cn(C)cn3)cccc2C1=O | 3.8 | 0 | -2 | . | 3 | 3762 | -18
45 | Cc1nc(C)c(C(=O)C2=C(O)C(=O)N(CCN3CCOCC3)C2c2cccnc2)s1 (centres undefined) | 3.0 | . | -1 | 3 | . | 2360 | -28
46 | Cc1cc(C)n(-c2cc(=O)n(C)c(=O)n2C)n1 | 7.3 | 8 | 3 | -9 | 2 | 2793 | -23
47 | O=[N+]([O-])c1ccc(N2CCNCC2)c(S(=O)(=O)N2CCOCC2)c1 | 4.7 | . | 3 | -13 | . | 2315 | -1
48 | COc1cc(CN(C)CCc2ccccn2)cc(OC)c1OC | -2.4 | . | 2 | 4 | . | 4558 | -33
49 | Brc1ccccc1-c1nnc(COc2cccc3cccnc23)o1 | 9.0 | 5 | -1 | -6 | -6 | 2530 | -4
50 | Cc1noc(C)c1C(=O)OCC(=O)NCc1ccccc1 | 3.2 | 5 | 4 | . | 5 | 6276 | -13
51 | Cc1cccc2cc(C3CC(c4ccco4)=NN3C(=O)CCC(=O)O)c(Cl)nc12 (centres undefined) | 53 | 7 | 14 | 1 | 9 | 2762 | -12
52 | Cc1nnc(SCC(=O)c2c(N)n(C3CC3)c(=O)[nH]c2=O)n1-c1ccccc1 | 3.1 | 7 | 1 | . | 5 | 3946 | -17
53 | COC(=O)c1cc(=O)n(-c2c(Cl)cc(C(F)(F)F)cc2Cl)[nH]1 | -2.1 | -6 | 0 | -4 | 11 | . | -22
54 | COCc1cc(=O)[nH]c(Nc2nc(C)c3cc(OC)ccc3n2)n1 | 1.5 | -12 | 1 | 0 | -1 | . | .
55 | Cc1ccc(S(=O)(=O)/N=C2/NC(=O)/C(=C/c3ccccn3)S2)cc1 | 20 | -1 | 3 | 4 | 16 | 3482 | -19
56 | COc1ccc(-n2nnnc2-c2ccc(S(C)(=O)=O)cc2Cl)cc1 | 3.1 | 15 | 6 | -1 | 2 | 3702 | -19
57 | O=C(NCCN1CCCCC1)c1cc(COc2c(F)cccc2F)on1 | 0.4 | -3 | 2 | -1 | 2 | 4575 | 1
58 | CN(C)S(=O)(=O)c1ccc(N2CCCC2)c(C(=O)Nc2nc3c(ccc4ccccc43)s2)c1 | 2.1 | -7 | 5 | -12 | 8 | 10120 | -8
59 | COc1ccc(NC(=O)c2csc3c2CCCCC3)c(OC)c1 | -1.4 | 1 | 2 | 2 | 12 | 2393 | -7
60 | N#Cc1cc2ccccc2n2nnnc12 | 3.9 | -10 | 2 | 0 | -2 | 3984 | -15

Down the list, from the results shown:
Sa ugtP lethal for entries 50–53 → 4, 14, 1, 0
Mtb hypoxia inh growth for entries 50–53 → 5, 9, 5, 11
PrP 5UTR inh for entries 50–53 → -13, -12, -17, -22

Following part:
cpd | mol | RN4220 kill | Mtb hypoxia inh | Sa ugtP lethal | BJeLR lethal | Mtb hypoxia inh growth | Bead autofluor | PrP 5UTR inh
61 | CCOc1cc(N2CCOCC2)c(OCC)cc1NC(=O)CN1CCCC(C)C1 (centres undefined) | -1.6 | 1 | 12 | 5 | 6 | 2564 | -7
62 | CCOc1cccc(CN2CCN(c3cccc(C(F)(F)F)c3)CC2)c1O | 5.1 | 3 | -7 | -11 | 6 | 7873 | -10
63 | COc1ccc(CNc2oc(Cc3cccc4ccccc34)nc2C#N)cc1 | -7.3 | 7 | -23 | 2 | 9 | 2906 | -11
64 | COc1ccc(CCNC(=O)CN2CCN(S(=O)(=O)c3ccc(Cl)cc3)CC2)cc1OC | 1.4 | . | -8 | -1 | . | 4562 | -7
65 | COC(=O)C1=C(C)N(C)C(=S)N(C)C1c1cccc(Br)c1 (centres undefined) | 2.5 | -3 | 9 | -13 | 2 | 4437 | -1
66 | Cc1ccc(S(=O)(=O)N2CCN(C(=O)CSc3ncn[nH]3)CC2)cc1 | 4.0 | 7 | 3 | . | -2 | . | -6
67 | Cc1cc(NC(=O)CCC(=O)N(Cc2ccco2)C2(C(=O)NC3CCCC3)CCCCC2C)no1 (centres undefined) | 7.0 | -1 | 8 | -16 | -2 | 5272 | -3
68 | COc1ccc(C2C(C#N)=C(N)Oc3cc(N)ccc32)cc1 (centres undefined) | 3.9 | 7 | -1 | -3 | -1 | 4583 | -18
69 | CCC(C)(C)C(=O)Nc1nnc(CCc2ccccc2)s1 | 9.1 | 2 | 4 | 0 | -4 | 3221 | -42
70 | COc1cc2c(cc1NC(=O)CSc1ccccn1)oc1ccccc12 | 2.9 | 9 | -9 | 5 | 3 | 20567* | -10
71 | CCN1CCN(S(=O)(=O)c2ccc(Cl)c(C(=O)N(C)Cc3ccc(Cl)cc3Cl)c2)CC1 | 2.4 | 6 | 7 | -13 | 2 | 4613 | -6
72 | Cc1ccc(C)c(N2CCN(C(=O)c3cc(S(=O)(=O)N4CCCC4)cn3C)CC2)c1 | 2.9 | 2 | -4 | 0 | 0 | 5497 | -22
73 | CC(=NNC(=O)C1CC1)c1cccnc1 | 3.9 | 8 | 5 | . | 6 | . | .
74 | COc1ccccc1/C=C(\C#N)C(=O)Nc1ccc(S(N)(=O)=O)cc1 | 1.3 | 13 | -1 | 4 | 8 | 1990 | -14
75 | CCOP(=O)(OCC)C1(O)C(=O)Nc2ccccc21 (centres undefined) | 4.8 | -5 | 5 | 1 | 7 | 1944 | -11
76 | O=S(=O)(Cc1noc(-c2ccccc2Cl)n1)c1ccccn1 | 3.8 | -5 | 5 | 5 | 3 | 4885 | -71

Assay outcomes: PubChem, several laboratories
